TRPML1 blocker = qHTS for Inhibitors of the Human Mucolipin Transient Receptor Potential 1 (TRPML1). Mucolipin-1 (Homo sapiens), Q9GZU1. TRPML1-inducible cells, Ca2+ dye fluorescence, FDSS; hits give low values; inhibition of EC80 agonist-evoked calcium signal. activity change, negative = inhibition, % (concentration not given with the values). 0.02% of 390,000 active; in the data active means activity change below about -50%; inconclusive means about -30% to -50%; inactive means above about -30%;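 note: stimulus is agonist 54-4 at its EC80 concentration; % is set by controls: 0 for no effect and ±100 for the full control effect; compound concentration not given in the record; the text of the record puts the active cut at -80%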
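TRPML1-DL cells, Tet-induced overnight (~16 h, 37 °C) at 1,500 cells/well, were loaded with Ca8 no-wash dye plus quencher for 45-90 min at room temperature. Compounds were pinned during FDSS kinetic reading; agonist 54-4 at EC80 (4 uM final) then added.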
Six1-Eya2 inh = qHTS Assay for Inhibitors of the Six1/Eya2 Interaction; activity change, % (test concentration not listed); AlphaScreen GST-Six1/His-Eya2 binding, biochemical; hits give low values; control for the full effect not named in the record; 0.56% of 360,000 active; Homeobox protein SIX1 (Homo sapiens) + Protein phosphatase EYA2 (Homo sapiens), …; AID 651725, 2012; in the data active = activity change below about -65%; inconclusive = about -30% to -65%; inactive = above about -30%; note: % is set by controls: 0 for no effect and ±100 for the full control effect; compound concentration not given in the record
Target sequence (O00167 whole entry, looked up): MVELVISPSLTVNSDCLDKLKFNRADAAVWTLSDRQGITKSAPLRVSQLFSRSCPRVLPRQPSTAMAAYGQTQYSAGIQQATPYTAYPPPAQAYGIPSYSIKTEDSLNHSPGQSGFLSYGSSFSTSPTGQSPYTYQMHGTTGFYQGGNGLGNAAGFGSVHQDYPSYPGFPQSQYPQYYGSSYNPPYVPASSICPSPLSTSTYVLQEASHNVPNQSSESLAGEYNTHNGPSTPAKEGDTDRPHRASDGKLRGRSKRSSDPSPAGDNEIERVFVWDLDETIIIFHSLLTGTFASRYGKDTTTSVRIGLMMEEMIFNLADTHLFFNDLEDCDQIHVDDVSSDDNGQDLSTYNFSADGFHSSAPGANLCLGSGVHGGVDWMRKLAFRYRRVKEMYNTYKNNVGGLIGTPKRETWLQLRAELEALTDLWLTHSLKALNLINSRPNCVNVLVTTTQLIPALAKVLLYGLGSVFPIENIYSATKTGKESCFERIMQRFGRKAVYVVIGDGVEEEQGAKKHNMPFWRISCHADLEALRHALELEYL
Target sequence (Q15475 whole entry, looked up): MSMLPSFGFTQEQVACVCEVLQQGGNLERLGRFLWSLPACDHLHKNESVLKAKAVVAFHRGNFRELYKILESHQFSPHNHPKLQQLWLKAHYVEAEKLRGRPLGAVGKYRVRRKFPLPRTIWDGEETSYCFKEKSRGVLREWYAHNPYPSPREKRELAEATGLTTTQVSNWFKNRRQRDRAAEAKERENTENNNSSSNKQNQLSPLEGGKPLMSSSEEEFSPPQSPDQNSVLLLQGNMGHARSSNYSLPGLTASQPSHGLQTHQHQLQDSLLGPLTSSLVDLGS
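Compounds are tested against tagged Six1 and Eya2 proteins bridged by glutathione donor and nickel acceptor beads; after a one-hour incubation at 37 °C without light, AlphaScreen emission is recorded.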
D2 potentiator = Beta-Arrestin HTS for Positive Allosteric Modulators of the Human D2 Dopamine Receptor: Potentiators. D(2) dopamine receptor (Homo sapiens), P14416. DiscoveRx D2 beta-arrestin cells, luminescence, 90 min; 100% = 57 uM dopamine signal. potentiation, % (no concentration beside the values). 0.23% of 360,000 active. AID 624464, 2012; active = potentiation of 50% or more; inconclusive = 30% to 50%; inactive = 30% or less;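 note: compound concentration not given in the record; tested on top of an EC20 dose of dopamine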
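PathHunter beta-arrestin assay in DiscoveRx D2 cells. Compounds were added with an EC20 of dopamine (50 nM final) for 90 min at 37 deg C. Luminescence was read 1 h after detection reagent, with 57 uM dopamine as the EC100 control.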
D2 ag = Beta-Arrestin HTS for Positive Allosteric Modulators of the Human D2 Dopamine Receptor: Agonists; 0.084% of 360,000 active; AID 624465, 2012; D(2) dopamine receptor (Homo sapiens), P14416; activation, % (test concentration not listed); DiscoveRx PathHunter D2 beta-arrestin, luminescence, 90 min; 100% = 57 uM dopamine signal; in the data active = activation above about 40%; inconclusive = about 15% to 40%; inactive = below about 15%; note: compound concentration not given in the record; the text of the record calls up to 30% inactive
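DiscoveRx PathHunter D2 beta-arrestin cells (2,100/well) attached overnight, then compound-stimulated 90 min at 37 C in HBSS/10 mM HEPES/0.1% Tween-20 buffer; beta-galactosidase complementation read by luminescence after 1 h at ambient temperature. Dopamine 57 uM final (EC100) as control.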
TRPML1 ag = qHTS for Agonists of the Human Mucolipin Transient Receptor Potential 1 (TRPML1) | TRPML1-expressing cells, Ca2+ dye fluorescence, FDSS; host cell line not named in the record; reference of the full effect not given here | activation, % (test concentration not listed) | 0.12% of 410,000 active | Mucolipin-1 (Homo sapiens), Q9GZU1; in the data active = activation above about 50%; inconclusive = about 30% to 50%; inactive = below about 30%; note: 0% is about no effect; the text of the record puts the active cut at 80%
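Cells: TRPML1-DL, 1X Tet inducer, ~16 h at 37 degrees C/5% CO2. Dye: ABD Ca8 no-wash + quencher, 45-90 min RT. Read: 10 s baseline, compound add, 110 s agonist phase; 54-4 EC80 (4uM final), 110 s antagonist phase.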
PINK1 modulator = A Quantitative High throughput Screen to Identify Chemical Modulators of PINK1 Expression; PINK1 immunofluorescence, high-content cytometry, 24 h; Potency, µM (top dose mostly 76.6 µM), without a hit: top-dose activation (PINK1 increase), usual class: activators; 0.2% of 410,000 active; AID 624263, 2012; active = well fitted activation curve with a large enough effect; inconclusive = small, poorly fitted or top-dose-only effect; inactive = flat fitted curve, though single readings scatter; cell line not stated here;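 note: potency is the fitted concentration of half-maximal effect; % of control where 0% means no effect; nearly all actives have a fitted effect of over 65% in size; a mitochondrial uncoupler was the plate control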
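Fluorescence from anti-PINK1 antibody, together with nuclear and cell stains, was scanned on a laser-scanning cytometer. Before staining, stable-line cells were incubated 24 hours with compounds at 5 concentrations; primary antibody 12 h at 10 degrees C.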
The depositor's hits bear a star; ? = inconclusive; / = not tested or not shown; [ ] = another dose, or the depositor's remark.

SMILES | TRPML1 blocker | Six1-Eya2 inh | D2 potentiator | D2 ag | TRPML1 ag | PINK1 modulator
COc1ccc(C(CCc2cc(OC)c(OC)c(OC)c2)NC(C)=O)cc1 (configuration not stated) | -7.9 | 10.3 | 0.3 | -0.7 | -0.1 | -2.2%
CCN(CC)c1ccc(NC(=O)c2sc3nc(-c4ccccc4)cn3c2C)cc1 | 49.1 | / | / | / | 3.6 | 1.3%
CC(C)Cn1c([N+](=O)[O-])nc2c1c(=O)[nH]c(=O)n2C | -0.9 | 3.2 | 27.1 | 2.7 | -0.7 | -1.5%
COc1ccccc1CNS(=O)(=O)CCNC(=O)c1ccccc1 | 29.1 | 8.7 | -1.6 | -5.1 | 1.3 | 1.2%
COCCNC(=S)N(CCc1c(C)[nH]c2ccc(F)cc12)Cc1ccco1 | 23.9 | -7.1 | -5.8 | -2.0 | 0.9 | 1.3%
O=C(Cc1ccc(NC(=O)C2CCN(C(=O)C3CCCCC3)CC2)cc1)Nc1cccc(C(=O)N2CCCCC2)c1 | 14.8 | 4.4 | -2.4 | 0.1 | 2.8 | 0.2%
Cc1ccc(C(=O)Nc2ccccc2Oc2ccccc2)o1 | 2.0 | 0.2 | -20.8 | -2.3 | 0.1 | -1.3%
COc1ccccc1-c1nnc(Nc2nc3c(OC)cccc3s2)o1 | 3.5 | 2.6 | 1.0 | -0.4 | 0.6 | ?
CCOC(=O)N1CCN(C(=O)COc2ccccc2[N+](=O)[O-])CC1 | -13.2 | 3.2 | -3.0 | -8.5 | -0.3 | -1.0%
CCN(CC)c1ccc(/C=N/N2CCOCC2)cc1 | 29.3 | -14.0 | 9.5 | 0.7 | 0.8 | -1.2%
Cc1cc(C)c(C)c(S(=O)(=O)N2CCN(C(=O)C3CCC3)CC2)c1C | -3.7 | -3.1 | -14.5 | -0.5 | 1.3 | -1.1%
CNS(=O)(=O)c1cccc(C(=O)OCC(=O)c2cc(C)n(CC3CCCO3)c2C)c1 (configuration not stated) | -0.7 | 10.2 | 10.0 | 0.7 | 1.1 | 6.7%
CNC(=S)N(CCc1c(C)[nH]c2ccc(F)cc12)Cc1ccco1 | 48.5 | -15.5 | -0.6 | 0.9 | 0.8 | -0.6%
O=C1CC[C@@H](CN(Cc2ccccn2)Cc2nc(-c3ccc(C(F)(F)F)cc3)no2)N1 | -8.2 | 6.7 | -13.2 | -4.1 | -0.9 | -0.1%
O=C(NN=C1CCCC1)c1cc(O)cc(O)c1 | 1.1 | -13.6 | -5.3 | 4.3 | -0.4 | -0.4%
CCCCCCN1CCN(C2CN(Cc3cn(Cc4ccc(F)cc4)nn3)S(=O)(=O)C2)CC1 (configuration not stated) | / | -7.9 | / | / | -0.9 | -1.2%
O=C(O)c1cc(-c2ccccc2)nc(-c2ccccc2)c1 | 38.7 | -4.4 | 1.0 | 4.1 | 4.4 | 1.3%
COc1cc2c(cc1NC(=O)C(C)N1CCN(S(=O)(=O)c3ccc(C)c(C)c3)CC1)oc1ccccc12 (configuration not stated) | -8.3 | -0.4 | -9.5 | -2.0 | -0.1 | 3.0%[38.3 µM]
Cn1c(SCC(=O)NCc2ccc3c(c2)OCO3)nnc1-c1cc2ccccc2cc1O | -1.3 | -2.2 | -10.9 | 0.5 | 1.5 | /
COCCNC(=O)c1ccc(Cn2c(SCC(N)=O)nc3ccccc3c2=O)cc1 | -15.7 | / | / | / | 1.5 | -4.8%
COc1ccc2c(c1)CCCC21NC(=O)NC1=O (configuration not stated) | 7.9 | -1.8 | -10.1 | -2.2 | 0.2 | 0.2%
Nc1ccc(C(=O)N2CCCC2)cc1CS(=O)(=O)c1ccc(Cl)cc1 | -0.5 | 7.1 | -0.5 | -2.2 | 0.9 | 1.3%
Cc1cc(C)n(-c2nc3sc4c(c3c3nnc(SCC(N)=O)n23)CC(C)(C)OC4)n1 | 4.9 | 10.3 | -6.4 | -2.3 | 1.1 | 1.8%
O=C(CSc1nnc(-c2cccs2)n1-c1ccccc1)NCc1ccc2c(c1)OCO2 | 3.6 | -0.9 | 3.0 | -1.4 | 2.0 | -2.8%
COC(=O)c1c(NC(=O)CC2SC(N)=NC2=O)sc2c1CCC(C)C2 (configuration not stated) | 7.7 | -5.4 | -7.5 | -5.0 | -0.6 | -2.6%

Ordered by the number under D2 ag (rising): 3 from the list above.
compound | D2 ag
CCOC(=O)N1CCN(C(=O)COc2ccccc2[N+](=O)[O-])CC1 | -8.5
CNS(=O)(=O)c1cccc(C(=O)OCC(=O)c2cc(C)n(CC3CCCO3)c2C)c1 (configuration not stated) | 0.7
CC(C)Cn1c([N+](=O)[O-])nc2c1c(=O)[nH]c(=O)n2C | 2.7

Further records:
SMILES | TRPML1 blocker | Six1-Eya2 inh | D2 potentiator | D2 ag | TRPML1 ag | PINK1 modulator
CC(=O)c1cccc(NC(=O)NCc2cccnc2)c1 | -7.5 | 1.8 | -11.5 | -1.0 | 0.0 | -0.6%[38.3 µM]
Cc1cc(C(=O)N/N=C/c2ccc([N+](=O)[O-])s2)c2ccccc2n1 | -11.4 | -10.1 | -3.4 | 14.5 | 1.2 | 1.1%
Nc1ncnc2nc(SCC(=O)Nc3cccc(C(F)(F)F)c3)[nH]c12 | 14.7 | -7.4 | -9.4 | -1.2 | -0.7 | 2.3%
CC(C)(O)[C@H](O)COc1c2occc2cc2ccc(=O)oc12 | 19.9 | 10.1 | -20.9 | 0.0 | 0.1 | 0.7%
O=C(CN1CCOCC1)NCC12CC3CC(CC(C3)C1)C2 | -1.2 | 10.9 | -4.7 | 1.3 | -0.1 | 0.9%
O=c1c2ccccc2[nH]c(=S)n1CCN1CCN(Cc2ccccc2)CC1 | -12.5 | -7.9 | -22.3 | -3.8 | 0.0 | -4.5%[38.3 µM]
Cc1cc(NS(=O)(=O)c2ccc(NS(=O)(=O)c3cc(C)c(Cl)cc3Cl)cc2)no1 | -3.1 | -3.7 | 7.5 | 5.4 | 0.1 | 0.8%
Cc1ccc(NC(=O)CCN2CCN(CCO)CC2)cc1Br | 17.7 | 21.3 | -6.6 | -2.5 | 0.1 | -0.1%
Cc1cccn2c(=O)c3cc(S(=O)(=O)c4ccc(Br)cc4)c(=N)n(C4CCCC4)c3nc12 | 5.7 | -2.8 | -4.4 | 4.8 | 0.4 | 13.6%
COC(=O)c1sc2nc3c(cc2c1N)COC(C)(C)C3 | 1.9 | 1.9 | -11.1 | -1.8 | -0.4 | 2.9%[38.3 µM]
NS(=O)(=O)c1ccc(NC(=O)COC(=O)c2ccc([N+](=O)[O-])s2)cc1 | / | -1.5 | 6.1 | ? | / | -0.8%
O=C(CN(Cc1ccco1)C(=O)c1ccc(Cl)cc1)Nc1c(Cl)cc(Cl)cc1Cl | 0.1 | 8.1 | -1.7 | -2.2 | 1.6 | 3.1%
CN(CC(=O)Nc1ccc(F)c(F)c1F)C(=O)c1nn(Cc2ccccc2)c(=O)c2ccccc12 | 9.0 | -3.3 | 7.2 | -0.5 | -1.5 | 2.3%
CN(C)CCCN(C(=O)c1ccc2c(c1)CCCC2)c1nc2ccc(Cl)cc2s1 | 43.7 | -29.8 | -34.9 | -4.7 | 2.7 | -4.2%
COc1ccc(NS(=O)(=O)c2cc(C(=O)N(C)CCc3ccccn3)ccc2Cl)cc1 | 11.1 | 7.1 | 2.2 | 3.5 | 0.8 | 0.3%
Cc1ccc(-c2nc3c(c(SCC(=O)N4CCCC4)n2)COC(C)(C)C3)cc1 | -5.2 | 4.9 | 0.9 | -1.4 | -0.3 | 1.0%
CCOc1ccc(S(=O)(=O)N(CCO)CCO)cc1-c1nc2c(C(C)(C)C)nn(C)c2c(=O)[nH]1 | 50.5 | -2.1 | 2.9 | -3.5 | -0.7 | 2.1%
CCN1CCN(S(=O)(=O)c2ccc(Cl)c(C(=O)Nc3ccc(OC(F)F)cc3)c2)CC1 | -12.5 | -0.8 | -10.8 | 2.4 | -0.4 | -1.3%
Cc1cc(=O)n2c(sc3ccccc32)c1C#N | ? | 6.7 | -3.5 | -6.0 | -0.4 | -1.3%
COc1ccc(NC(=O)CN(C)C(=O)c2ccc3ccccc3n2)cc1 | -11.0 | -10.8 | -5.9 | -2.5 | 0.3 | 0.1%
O=S(=O)(c1ccc(S(=O)(=O)N2CCCC3(CCCCC3)C2)cc1)N1CCCCC1 | 8.5 | -1.5 | -19.1 | 0.6 | 0.1 | /
CCOc1ccc(CCNC(=O)c2ccc3c(c2)N(Cc2cccc(Cl)c2)C(=O)c2ccccc2S3(=O)=O)cc1OCC | -16.0 | / | / | / | 1.4 | 1.9%
COc1ccc(CCN2C(=O)NC(NC(=O)CC(C)C)(C(F)(F)F)C2=O)cc1OC (configuration not stated) | -2.6 | 5.5 | -2.3 | -8.7 | -1.3 | 3.7%
C/C(=N\NC(=O)c1ccncc1)C12CC3CC(CC(C3)C1)C2 | 4.4 | 1.5 | 1.2 | 3.1 | -0.1 | -1.1%
Cc1nn(C)c(C)c1CNC(=O)/C=C/c1ccccc1F | 19.2 | -1.8 | -7.2 | -1.1 | 4.6 | 0.2%

(cont.)
SMILES | TRPML1 blocker | Six1-Eya2 inh | D2 potentiator | D2 ag | TRPML1 ag | PINK1 modulator
COc1ccc(NC(=O)CSc2ccccc2)cc1S(=O)(=O)N1CCOCC1 | -9.4 | 8.4 | -21.4 | -3.3 | 0.3 | 0.7%
CN(C)CCNc1ncnc2c1ncn2[C@H]1CN(CCc2ccccc2)C[C@@H](CO)O1 | -7.3 | -3.0 | -8.9 | -4.8 | 0.0 | 0.7%
OC12CCCCC1C(c1ccc3c(c1)OCO3)N(Cc1ccc(F)cc1)CC2 (configuration not stated) | 21.4 | -0.2 | -17.2 | -5.4 | -0.2 | -1.3%
COC(=O)c1sccc1-c1ccc(/C=N/OC(=O)c2cccs2)o1 | -17.6 | 11.1 | 3.5 | -2.9 | 2.1 | -1.5%
CCCOc1ccc(C(=O)NCCO)cc1 | 2.6 | 6.5 | -4.4 | -1.4 | -0.3 | 1.7%
Cn1nnnc1SCC(=O)Nc1ccccc1C(=O)NCc1ccccc1 | -12.3 | -3.2 | -3.4 | 1.0 | 3.9 | 2.3%[38.3 µM]
CCOC(=O)C1=C(c2ccccc2)OC(N)=C(C#N)C1c1cccnc1 (configuration not stated) | 42.0 | -9.5 | 1.3 | 3.3 | 3.6 | -0.7%
O=C1NCC(CN(c2ccccc2)c2ccccc2)O1 (configuration not stated) | 34.7 | 5.8 | -4.8 | -1.4 | 0.0 | -0.9%

Assay outcomes from PubChem BioAssay.
